Ecoli rRNA inh: inhibitors of bacterial rRNA selective over humanized ribosomes. E. coli WT GFP vs humanized-ribosome RFP mutants, fluorescence, 24 h; active compounds read low; DMSO median 0, no signal -100. GFP signal change (wild-type ribosome), % (no concentration beside the values). hit rate 1.6% among 350,000. AID 720706;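 active means significant combined selectivity score with lowered wild-type GFP, culture density cut under 30%, mutant RFP and density less affected; inactive means any of these conditions unmet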; further: one replicate is shown; some compounds called inactive have numbers as strong as hits
LANA-H2B inh: blocks KSHV LANA binding to histone H2A/H2B; Q9QR71; cell-free LANA-H2A/H2B peptide, fluorescence polarization; inhibition, % (test concentration not listed); hit rate 0.6% among 320,000; in the data active means inhibition mostly above about 10%, no sharp cut-off; inactive means mostly below about 6.7%;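 further: stock transfer was 7.5 nL into about 10 µL; 0% = median of vehicle wells and 100% = median of positive control wells; one replicate is shown; the record names a cut of 25% in any replicate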
Target sequence (Q9QR71 whole entry, looked up): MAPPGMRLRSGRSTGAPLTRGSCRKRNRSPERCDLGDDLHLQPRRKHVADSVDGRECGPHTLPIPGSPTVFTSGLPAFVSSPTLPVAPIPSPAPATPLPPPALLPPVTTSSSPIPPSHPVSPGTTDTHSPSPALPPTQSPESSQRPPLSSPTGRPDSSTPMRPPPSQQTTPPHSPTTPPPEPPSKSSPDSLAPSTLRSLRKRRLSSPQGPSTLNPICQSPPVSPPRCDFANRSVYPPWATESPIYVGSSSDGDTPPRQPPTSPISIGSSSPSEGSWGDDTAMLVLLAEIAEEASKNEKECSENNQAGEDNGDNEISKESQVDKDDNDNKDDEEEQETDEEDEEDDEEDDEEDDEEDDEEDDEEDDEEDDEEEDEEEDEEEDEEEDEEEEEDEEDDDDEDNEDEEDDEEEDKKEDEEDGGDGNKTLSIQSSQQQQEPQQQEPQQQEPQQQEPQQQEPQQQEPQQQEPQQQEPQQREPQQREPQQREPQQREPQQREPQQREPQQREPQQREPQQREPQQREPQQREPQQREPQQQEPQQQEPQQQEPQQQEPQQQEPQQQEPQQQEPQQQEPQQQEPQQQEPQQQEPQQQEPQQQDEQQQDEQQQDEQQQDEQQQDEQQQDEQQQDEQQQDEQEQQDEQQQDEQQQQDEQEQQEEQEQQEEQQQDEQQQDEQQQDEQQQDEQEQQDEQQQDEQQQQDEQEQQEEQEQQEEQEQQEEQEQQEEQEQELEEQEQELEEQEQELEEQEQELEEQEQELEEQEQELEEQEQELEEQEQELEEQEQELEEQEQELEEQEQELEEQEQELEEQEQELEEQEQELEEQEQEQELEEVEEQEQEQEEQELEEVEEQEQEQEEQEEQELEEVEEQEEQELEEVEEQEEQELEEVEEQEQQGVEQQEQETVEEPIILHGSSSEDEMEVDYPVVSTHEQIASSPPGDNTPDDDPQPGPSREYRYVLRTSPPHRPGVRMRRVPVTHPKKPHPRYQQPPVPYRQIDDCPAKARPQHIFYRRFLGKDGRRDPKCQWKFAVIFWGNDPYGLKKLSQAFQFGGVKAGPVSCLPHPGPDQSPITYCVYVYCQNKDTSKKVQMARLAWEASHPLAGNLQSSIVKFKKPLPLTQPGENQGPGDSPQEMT
Beta cell apopt: beta cell apoptosis inhibition; protection from apoptosis, % (no concentration beside the values); AID 435005; INS-1E cytokine-induced death, ATP luminescence, 48 h; percent of positive-control rescue, neutral wells zero; hit rate 0.8% among 300,000;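 active means all replicates at 75% or more, or half of them and the mean; inconclusive means half reach 75% but not the mean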;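 further: 0% = cytokine-treated negative control wells and 100% = positive control rescue; higher means more ATP so stronger rescue from cytokine killing; wells of about 40 µL received 100 nL stock; the first replicate is given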
ALR H2O2 inh: blocks human ALR sulfhydryl oxidase activity; P55789; purified ALR, DTT oxidation, H2O2 HRP-luminol luminescence; inhibition, % (test concentration not listed); hit rate 3.8% among 290,000; AID 485317;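 active means mean and each replicate at 75% or more; inconclusive means only one of the two met; inactive means neither met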;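 further: stock transfer was 7.5 nL into about 7.5 µL; 0% = neutral wells and 100% = wells with inactivated enzyme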
Beta2AR agonist: activates human beta-2 adrenergic receptor causing internalization. P07550. response, % (concentration not given with the values). Am2.2-beta2AR cells, FAP receptor internalization, flow cytometry; reference of the scale not given here. AID 504454. hit rate 0.43% among 340,000;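 active means response above a set limit, near 3 SD of response in nonfluorescent compounds, cut at about 42% in these data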;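 further: stock transfer was 100 nL into about 11 µL; a reference agonist was the positive control; negative values mostly stem from fluorescent compounds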
T cruzi inh: T. cruzi replication inhibition; T. cruzi beta-gal in NIH3T3, luminescence, 90 h; hit rate 1.4% among 300,000; inhibition, % (no concentration beside the values);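 active means mean inhibition across valid replicates above about 55%, limit read from the data; inconclusive means mean below that limit but half or more replicates reach it; inactive means mean below it, under half of replicates reach it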;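 further: signal also drops with host cell toxicity which is not excluded here; 0% = plate median of DMSO wells and 100% = zero luminescence signal; higher percent means less beta-gal luminescence so fewer parasites; stock transfer was 50 nL into about 50 µL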
Calb FLC: C. albicans growth modulation with fluconazole; C. albicans CaCi-2 (fluconazole-resistant clinical isolate) + fluconazole, Alamar Blue growth, 48 h; growth inhibition, % (no concentration beside the values); hit rate 0.57% among 300,000; AID 1979;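 active means most replicates above 75%; inconclusive means exactly half above 75%; inactive means most below 75%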;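 further: all wells also contain fluconazole at 8 µg/ml as a sub-toxic cotreatment; 0% = median of DMSO wells and 100% = median of geldanamycin control wells; wells of about 8 µL received 7.5 nL stock; the first replicate is given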
Bfl-1 A1 inh: inhibitors of the anti-apoptotic protein A1, read as caspase activation; caspase activation, % (no concentration beside the values); hit rate 0.066% among 330,000; AID 2462; MEF A1-2A-BIM cells, Caspase-Glo 3/7 luminescence, 3 h; percent of clofoctol response, vehicle zero;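 active means over half of replicate activation scores above 10%, or exactly half above 10 with the replicate mean above 10; inconclusive means replicate mean below 10 yet half the replicates above 10; inactive means over half of replicates below 10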;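 further: wells of about 30 µL received 50 nL stock; many hits fall short of the cut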
Ecoli rRNA inh OD600: further read-out of Ecoli rRNA inh, marked with its call; OD600 change, %; measured here: OD600 growth;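 optical density of the mix in the first replicate; 0 = DMSO median and -100 = no signal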
Ecoli rRNA inh RFP: also measured in Ecoli rRNA inh; calls as there; RFP signal change, %; measured here: RFP humanized mutant strains;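 first replicate; 0 = DMSO median and -100 = no signal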
* hit, by the source's call; u = inconclusive; x = not tested or not shown. This is a subset; rates above refer to the full screens.

SMILES | Ecoli rRNA inh | Ecoli rRNA inh OD600 | Ecoli rRNA inh RFP | LANA-H2B inh | Beta cell apopt | ALR H2O2 inh | Beta2AR agonist | T cruzi inh | Calb FLC | Bfl-1 A1 inh
CNc1nc(SC)nc(N(C)C#N)n1 | -1.7 | 2.2 | 4.2 | 1.9 | -0.8 | -4.7 | 2.7 | -0.5 | -8.9 | -0.4
Cc1ccc(CCNC(=O)c2cccc(N3CCCC3=O)c2)cc1 | x | x | x | -0.4 | -2.0 | 3.3 | -7.7 | -4.4 | -2.0 | -0.1
O=S1(=O)c2ccccc2Nc2ccccc21 | -4.3 | 0.4 | 0.8 | 1.2 | -2.7 | -4.1 | 4.5 | 2.3 | 36.7 | 0.2
O=P(O)(CCc1ccccc1)C(O)c1ccccc1 (stereo not drawn) | x | x | x | -0.3 | 0.7 | 4.3 | -0.1 | -27.8 | -5.9 | -2.5
COc1cccc(CNC(=O)CCS(=O)(=O)c2cc3c(cc2C)NC(=O)CO3)c1 | 6.6 | 6.4 | 6.8 | 2.7 | -2.5 | -5.6 | -4.8 | 0.7 | 8.0 | -0.4
O=C(Nc1ccc(S(=O)(=O)N2CCCCC2)cc1)C1CC1 | 4.0 | 3.2 | -1.6 | -3.2 | 5.3 | -1.4 | 6.8 | 15.3 | -0.1 | 0.7
COC(=O)c1cc2n3ccccc3c(C)c(-c3ccccc3)c-2c1C(=O)OC | x | x | x | -0.3 | 4.7 | -6.2 | -7.0 | 13.6 | 0.2 | -0.6
CC1=C(C#N)C(c2cccnc2)C2=C(CC(C)(C)CC2=O)N1 (stereo not drawn) | x | x | x | 2.6 | -3.4 | -5.4 | -16.8 | -1.2 | -1.1 | 0.2
Cc1ccc(S(=O)(=O)c2nc(S(=O)(=O)CCO)sc2N2CCOCC2)cc1 | 3.8 | 4.2 | -0.4 | 3.0 | -16.7 | -2.7 | 5.1 | -25.6 | -4.5 | -0.1
NC(=O)c1sc2nccc(Nc3ccccc3)c2c1N | x | x | x | -2.1 | -13.8 | 11.7 | 10.3 | 25.2 | 8.7 | -0.3
O=C(CSc1nnc(-c2ccncc2)n1CC1CCCO1)Nc1nccs1 (stereo not drawn) | x | x | x | -4.9 | -2.1 | -2.5 | 2.5 | 6.5 | -11.9 | -0.2
C/C(=C\c1ccccc1)C1Nc2cccc3cccc(c23)N1 | x | x | x | -7.0 | 1.3 | -16.6 | x | x | x | -1.2
CCOc1ccccc1OCCCC(=O)Nc1ccc(OC)nc1 | x | x | x | 0.6 | -6.7 | -5.1 | 3.9 | 2.4 | 6.5 | 0.9
CCNc1nc(NCc2ccccc2)nc(SCC(=O)Nc2ccccc2)n1 | x | x | x | -2.0 | 8.3 | -10.5 | -3.5 | 15.7 | 3.4 | 0.0
COCc1nc(-c2cc(Br)ccc2OC)no1 | x | x | x | -0.5 | -1.1 | 0.3 | -0.5 | 4.2 | -3.2 | -0.3
O=C(NCCOc1ccccc1)C1CCC(=O)N(CCCN2CCCC2=O)C1 (stereo not drawn) | 9.5 | 15.7 | -0.2 | 0.6 | -3.1 | 6.6 | 8.4 | -11.8 | 7.1 | 1.3
CCNc1ccc(C(=O)OCC(=O)NC(=O)NCC(C)C)cc1[N+](=O)[O-] | 4.7 | 14.6 | -12.3 | -2.0 | -5.6 | -11.0 | -2.5 | -12.0 | -6.2 | 0.3
Cc1ccc(CCNC(=O)CSCc2ccc(F)cc2)cc1 | -12.1 | -25.2 | -4.5 | 2.7 | -4.9 | -13.3 | 3.3 | 7.5 | 0.5 | -0.5
Cc1ccc(C(=O)c2ccccc2C(=O)O)cc1C | -1.0 | -2.1 | -1.3 | -3.3 | -0.2 | 7.9 | 0.5 | -9.5 | -19.1 | -0.8
CCCCn1c(N)c(N(CC(C)C)C(=O)c2oc3ccc(Br)cc3c2C)c(=O)[nH]c1=O | 10.7 | 7.4 | 3.2 | -0.8 | 4.8 | -2.6 | -4.5 | 1.2 | 4.9 | 0.4
COc1cc(NC(=O)c2ccco2)c(OC)cc1NC(=O)CSc1nnc(-c2cccs2)n1C | x | x | x | -6.7 | -8.6 | x | -4.9 | -11.2 | -4.7 | u
COc1cccc(NC(=O)N2CCC(C(N)=O)(N3CCCCC3)CC2)c1 | x | x | x | -2.6 | -1.1 | -1.9 | -0.1 | -14.6 | -18.7 | -0.6
CC1CCCCC1NC(=O)CSc1nnc(-c2ccncc2)n1CCCN(C)C (stereo not drawn) | 8.6 | 7.4 | -1.7 | -2.8 | -5.3 | -3.2 | -1.2 | -2.1 | -4.2 | -0.1
COc1ccc(NS(=O)(=O)c2cc(NC(=O)/C=C/c3cc(OC)c(OC)c(OC)c3)ccc2N2CCCCC2)cc1 | x | x | x | -0.7 | -8.1 | x | 0.7 | 54.8* | -9.3 | 0.2
c1ccc(COCCN2CCN(CCOCc3ccccc3)CC2)cc1 | 7.6 | -7.3 | -4.1 | -1.4 | -1.0 | -0.3 | -1.7 | 51.2 | -19.1 | 0.5
CCCCCn1c(=O)[nH]c2cc(C(=O)NCCN3CCOCC3)ccc2c1=O | x | x | x | -4.3 | -1.7 | 5.2 | 10.1 | x | x | -0.3
OCCNC1=NCCN1 | x | x | x | 1.3 | -4.3 | -4.3 | -9.0 | -23.7 | -1.0 | 1.3
COc1cccc(CN(C)C(=O)c2cccc(OCc3ccccc3)c2)c1 | -6.6 | -30.9 | 0.5 | 7.4 | -2.4 | 3.1 | -7.1 | 11.2 | -3.0 | 0.2
N=C1C(=O)OCC1c1cc(Cl)ccc1NC(=O)Nc1ccccc1 (stereo not drawn) | x | x | x | -2.2 | -6.0 | -3.2 | -1.5 | -10.2 | 3.4 | 0.4
CC(=O)c1ccc(N2CCN(C(=O)c3ccc(NC(=O)C4CCCO4)cc3)CC2)cc1 (stereo not drawn) | x | x | x | -3.1 | -0.3 | -23.2 | -6.0 | -2.3 | -10.3 | 1.1
CCc1nn(CC(=O)NCCCN2CCOCC2)c(=O)c2cc3sccc3n12 | 4.2 | 19.1 | 0.3 | -2.7 | -4.6 | -1.5 | -8.2 | 6.9 | 10.7 | 0.1
COc1ccccc1NC(=O)c1cc2ccccc2o/c1=N\O | x | x | x | 3.1 | 4.7 | 9.9 | 12.4 | 1.3 | 2.5 | -1.6
Cc1cccc2cc(-c3ccccc3)c(-c3ccccc3)c[n+]12 | -42.2* | -24.7* | -7.2* | 4.5 | 99.0* | -0.8 | -11.5 | 51.7 | -4.6 | -0.4
O=C(COC(=O)CNC(=O)c1ccc(Cl)cc1Cl)Nc1ccc(N2CCOCC2)cc1 | 12.1 | 15.3 | -0.4 | 3.1 | -0.6 | x | 0.7 | -16.0 | 0.7 | 0.0
CC1(C)C(=O)OC(C(=O)c2ccc(C(C)(C)C)cc2)C(C)(C)C1=O (stereo not drawn) | x | x | x | 1.6 | -3.9 | -9.6 | 7.1 | 4.5 | -35.8 | 0.3
Cc1ccc(NC(=O)C(C)N2CCc3ccccc3C2)cc1 (stereo not drawn) | 0.3 | 2.9 | -0.4 | -6.9 | x | 0.3 | -6.0 | 0.8 | 3.9 | -2.8
O=C(N/N=C/c1ccc(Cl)cc1Cl)C(=O)NC1CC1 | 15.0 | 16.1 | 4.6 | 1.5 | 1.8 | -12.6 | 4.9 | -0.4 | -6.9 | 0.9
CCOc1ccc(C2=Nn3c(nnc3-c3ccccc3OC)SC2)cc1 | x | x | x | -4.8 | 33.1 | x | -5.9 | 40.3 | u | -0.6
Cc1ccc(-n2nnnc2SC(C)C(=O)NCC(=O)Nc2ccc(F)c(F)c2F)c(C)c1 (stereo not drawn) | x | x | x | -13.3 | 1.2 | x | -4.6 | 4.0 | -6.6 | 0.7
CC(C)c1ccc2[nH]c3c(c2c1)CCC/C3=N\NC(=O)c1ccncc1 | 0.9 | 7.8 | 1.8 | 0.3 | 24.2 | -0.3 | 4.7 | -53.8 | 30.0 | 1.2
CCN(CC)C(=O)c1sc(NC(=O)C(C)C)c(C#N)c1C | 11.4 | 2.5 | -1.4 | 1.9 | -7.1 | -10.8 | -13.7 | u | -2.3 | 1.4
CC1CN(C(=O)c2ccc(N3CCCCC3)c([N+](=O)[O-])c2)CC(C)O1 (stereo not drawn) | x | x | x | -0.2 | -3.5 | -0.1 | -6.2 | -8.3 | u | -0.3
COc1ccc(C2=C(SC)CC2=NC(C)(C)C)cc1 | x | x | x | 0.1 | -2.7 | 13.8 | 1.9 | 1.2 | -1.4 | 0.2
OCC[C@H]1C[C@@H](O)[C@H](O)[C@@]2(CCc3ccccc3O2)O1 | 4.8 | 11.9 | -5.0 | -4.2 | 4.3 | 3.9 | -2.6 | x | x | -1.0
CC(CN1CCCC1)OC(=O)c1ccc(Br)cc1 (stereo not drawn) | -1.5 | 1.8 | 2.4 | -2.1 | -8.0 | -15.7 | -5.5 | 7.1 | -4.9 | 0.4
CC1CC(C)CN(CCCNC(=O)c2csc3c2CCCCC3)C1 (stereo not drawn) | 0.1 | -5.2 | 2.3 | 2.6 | x | 2.3 | 1.4 | 11.2 | -25.8 | 0.9
CCc1cccc(CC)c1NC(=S)NC(C)c1ccccc1 (stereo not drawn) | -22.9 | -33.0 | 2.2 | 1.3 | 14.0 | -19.3 | 4.2 | u | -17.5 | 0.5
CCC1CCCCN1CCCNC(=O)CN1C(=O)COc2ccccc21 (stereo not drawn) | 3.5 | 7.6 | -1.4 | 1.9 | -3.5 | -0.5 | 0.5 | -1.1 | -13.2 | -0.3
CN(C)CC/C=C1\c2ccccc2CSc2ccccc21 | x | x | x | 10.2 | x | -4.1 | 23.3 | x | x | 1.1
COc1ccc2cc(CCNC(=O)C3CCCC3)c(=O)[nH]c2c1 | 6.1 | 13.8 | 0.7 | 5.2 | -3.0 | -5.9 | -26.9 | -18.5 | 1.6 | 0.0
C[C@@]12C(=O)N(Cc3ccccc3)CC(=O)N1[C@H](/C=C/c1ccccc1)[C@@H]1C(=O)N(c3ccccc3)C(=O)[C@@H]12 | x | x | x | 0.8 | -5.9 | -15.1 | 3.0 | 2.9 | -16.8 | 1.3
O=C1CC2C(=O)NCCN2C(=NC(=O)c2ccc(Cl)cc2)N1 (stereo not drawn) | 7.0 | 10.5 | -2.9 | 0.1 | -5.8 | -8.1 | -2.3 | -16.4 | 0.1 | -0.8
CCCCC(=O)Nc1ccc2c(c1)nc(CCN1CCN(c3ccccn3)CC1)n2C | 6.1 | 9.7 | 2.6 | 0.7 | -4.0 | 0.9 | -0.7 | -8.0 | 0.1 | 0.6
O=C(CCSCc1cccc(Cl)c1)NCCC1=CCCCC1 | x | x | x | -1.3 | -3.1 | -23.1 | 2.1 | -2.2 | 0.5 | 0.0
COc1ccc(S(=O)(=O)N(C)c2ccc(C(=O)N3CCCCC3)cc2)cc1OC | -6.1 | -12.3 | 0.9 | -1.9 | 16.0 | 2.5 | -11.8 | -10.4 | 1.3 | -0.3
O=C(NN1CCOCC1)c1ccc(Cl)c([N+](=O)[O-])c1 | -5.5 | -2.7 | 1.5 | 1.4 | -0.7 | -18.0 | 1.2 | -19.6 | 6.0 | -0.9

Source: PubChem BioAssay (several laboratories)
